Screening data: PubChem, Fisher Drug Discovery Resource Center
NPYLR7 ag – mosquito NPYLR7 agonism | HEK293T NPYLR7/Galpha15, GCaMP6s calcium fluorescence | activation, % at 10 µM | hit rate 0.15% among 270,000 | AID 1259423; in the data active means activation above about 40%;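 further: 0% = vehicle and 100% = reference agonist at the receptor; some compounds past the cut are filed as inactive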
NPYLR7 ag max-min – further read-out of NPYLR7 ag, marked with its call; activation, %; measured here: Max-Min RFU normalised activation; some inactives read as strong as hits;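 span of the calcium signal over five minutes; 0% = vehicle and 100% = native peptide agonist; compound fluorescence can raise it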
The depositor's hits bear a star; & = joins results of further samples. Not all compounds are listed, so the mix of outcomes need not match the whole.

SMILES	NPYLR7 ag	NPYLR7 ag max-min
O=S(=O)(NC1CCc2ccccc21)c1ccc(Cl)cc1F (stereo not drawn)	8	6
CC(C)[C@@H]1CC[C@@H](C)C[C@H]1OCC(=O)Nc1ccc2[nH]cc(CCN3CCN(c4cccc(C(F)(F)F)c4)CC3)c2c1	15	4
C(=NNc1nc2ccccc2[nH]1)C(=NNc1nc2ccccc2[nH]1)c1ccccc1	0	2
COc1ccc(-c2nnc(SCC(=O)N/N=C\c3cccnc3)n2-c2ccccc2)cc1OC	-4	-10
Cc1onc(-c2ccc(F)cc2)c1C(=O)NCC1CN2CCCC2CO1 (stereo not drawn)	4	3
CCOc1ccc2nc(SCC(=O)Nc3ccc(C(C)=O)cc3)sc2c1	-6	-11
CCC(CC)C(=O)Nc1c(C#N)cnn1-c1nc(C)cc(C)n1	-2	-5
Cc1ccc(C(=O)N(C)Cc2nc(C3CC3)no2)cc1N1CCNC1=O	3	2
CN(C)S(=O)(=O)c1ccc(CN)s1	2	0
COc1ccc2c(c1)CCc1c-2noc1-c1ccc(NC(=O)[C@H](C)OC(C)=O)cc1	5	5
O=C(CN1CCN(S(=O)(=O)c2ccccc2Cl)CC1)NC1CCCCCC1	-6	-7
Cc1c(C(=O)NCCc2ccccc2)[nH]c2c1C(=O)CC(C)(C)C2	1	-1
NNC(=O)C12CC3CC(C1)CC(n1nnc(-c4ccccc4)n1)(C3)C2	-1	0
CCC(=O)c1c(CC)nn2c3ccccc3n(C)c12	1	1
C[C@@H]1CN(C(=O)CCCc2ccc(NC3OC(C4COC(C)(C)O4)[C@@H]4OC(C)(C)O[C@H]34)cc2)C[C@H](C)O1 (stereo partly drawn)	-9	-12
CCCCNC(=O)CN(CC1CCC1)c1ccccc1	-2	-3
Cc1cn2c3c(=O)n(Cc4ccc(F)cc4)c(=O)n(C)c3nc2n1Cc1ccccc1	1	5
CCc1c(C)sc2ncnc(N3CC[C@@H](N4CCC(O)CC4)[C@H](O)C3)c12	-11	-10
Cn1nc(C(=O)N2CCCC3(CCCCCC3)C2)ccc1=O	0	0
Cc1ccc(Cn2c(=O)c3c(nc4n(CCCl)c(C)cn34)n(C)c2=O)cc1	3	5
COc1ccccc1OCC1c2ccsc2CCN1C(=O)CN(C(=O)Nc1ccc(C)cc1)C(C)C (stereo not drawn)	1	2
COc1cccc(CC2CN(c3cc(OC)nc(OC)n3)CCO2)c1 (stereo not drawn)	3	2
CC1=NNc2nc3c(c(=O)n(Cc4ccc(F)cc4)c(=O)n3C)n2C1	2	6
O=C(O)COc1c(I)cc(Cl)c2cccnc12	3	3
COc1cc(C)nc(Nc2nc(C)c3ccc(C)cc3n2)n1	1	-6
COC(=O)c1ccc(N=C(N)NC#N)cc1O	-5	-6
COc1cccc(CN(Cc2ccc(F)cc2)Cc2nc(C(=O)NCc3ccncc3)co2)c1	20	35
O=C(NCCn1cccn1)c1ccc(C2CCNC2)cc1 (stereo not drawn)	4	2
CCOc1ccc(CN2C(=O)C(NC(C)=O)c3cccc(C)c32)cc1 (stereo not drawn)	-1	1
COc1ccc(C(=O)N2CCCC2)cc1NC(C)C	9	12
Cc1nn(C)c(C)c1NS(=O)(=O)c1ccc2c(c1)OCCCO2	9	15
CN(C)S(=O)(=O)c1ccc(S(=O)(=O)Nc2ccccc2Cl)cc1	9	10
CC(=O)NS(=O)(=O)c1ccc(N=CC(C#N)c2nc3ccccc3s2)cc1 (stereo not drawn)	2	-4
COc1ccc(NC(=O)c2ccc(OC)c(S(=O)(=O)N3CCOCC3)c2)cc1	-7	-10
O=C(O)c1c(Br)cnc2nc[nH]c12	-2	6
Cc1cc(C(=O)NC23CC4CC(CC(C4)C2)C3)c(C)s1	-1	26

Brought forward from above: 4 compounds; new compounds follow.
SMILES	NPYLR7 ag	NPYLR7 ag max-min
CC(=O)NS(=O)(=O)c1ccc(N=CC(C#N)c2nc3ccccc3s2)cc1 (stereo not drawn)	2	-4
COc1ccc(NC(=O)c2ccc(OC)c(S(=O)(=O)N3CCOCC3)c2)cc1	-7	-10
O=C(O)c1c(Br)cnc2nc[nH]c12	-2	6
Cc1cc(C(=O)NC23CC4CC(CC(C4)C2)C3)c(C)s1	-1	26
O=S(=O)(Cc1ccccc1)NC1CCCc2c1cnn2-c1ccc(F)cc1F (stereo not drawn)	7	-1
CC(CC(=O)O)CC(=O)Nc1nncs1 (stereo not drawn)	2	45
COCCN1CCC(CNCc2c(C(=O)N3CCCCC3)nc3c(C)cccn23)C1 (stereo not drawn)	-4	-10
Cc1c(Cl)c([N+](=O)[O-])nn1CC(=O)NC(C)c1ccccc1 (stereo not drawn)	1	-1
COc1ccc(C(=O)N2CCN(c3nccc(-c4cccc(C(F)(F)F)c4)n3)CC2)cc1	4	3
O=C(Nc1cccc2ncccc12)N(Cc1ccc(Cl)cc1)C1CC1	13	7
CC1CC(C)CN(C(C)(C)CNC(=O)NCc2ccc(NS(C)(=O)=O)cc2)C1 (stereo not drawn)	5	0
O=C(CSc1ccccn1)NC1CCCc2nc(-c3cccnc3)ncc21 (stereo not drawn)	9	6
COc1ccc(-n2cnnc2SCC(=O)Nc2ccc3nc(SC)sc3c2)cc1	2	4
Cc1ccc(Nc2nc(N3CCN(CCO)CC3)nc3nccnc23)cc1	2	8
COCCN(CC(=O)N(Cc1ccc(F)cc1)Cc1ccco1)C(=O)Nc1ccc(OC)cc1OC	-14	-4
Cc1cc(NCc2cnc3c(C)cccn23)nc(-c2cccnc2)n1	-3	-3

A draw from above in order of number of heavy atoms, smallest number first.
SMILES	NPYLR7 ag	NPYLR7 ag max-min
Cc1onc(-c2ccc(F)cc2)c1C(=O)NCC1CN2CCCC2CO1 (stereo not drawn)	4	3
O=C(CN1CCN(S(=O)(=O)c2ccccc2Cl)CC1)NC1CCCCCC1	-6	-7
COc1ccc(NC(=O)c2ccc(OC)c(S(=O)(=O)N3CCOCC3)c2)cc1	-7	-10

Continuation:
SMILES	NPYLR7 ag	NPYLR7 ag max-min
C/C=C/COC(=O)C1=C(C)NC(=O)NC1c1cc(OC)ccc1OC (stereo not drawn)	0	-5
O=C(NCc1ccccc1F)c1ccc(Nc2cccc(C(F)(F)F)c2)nc1	-4	-7
COc1ccc(OCCNC(=O)C(C)(C)n2cc(-c3ccc(OC)c(OC)c3)cn2)cc1	5	1
CN(Cc1ccc2c(c1)OCO2)Cc1csc(C2CCCCC2)n1	8	12
CC(C)(C)NC(=O)CN1CCNCC1	1	10
CCCC(C(=O)Nc1cc(C)on1)N(CCC)CC(=O)Nc1ccc(F)c(F)c1F (stereo not drawn)	10	2
COc1ccc(CC(=O)N[C@H](Cc2ccccc2)C(=O)N2CCC(C(=O)N3CCCCC3)CC2)cc1	28	36
CCCC[n+]1c(C)cc(C=C2Sc3ccccc3N2CC)cc1C	258*	321*
CC1C(c2ccc(F)cc2)=[N+]([O-])C(C)(c2ccccc2)N1O (stereo not drawn)	2	1
O=C(CCCc1ccc(Cl)cc1)N1CCCC(CO)(Cc2ccc(F)cc2F)C1 (stereo not drawn)	0	-2
CCN(Cc1ccoc1)CC1CCN(CCc2ccccc2C)CC1	5	2
CCC(C)N(Cc1c(-c2ccccc2F)noc1N1CCOCC1)C(=O)c1ccc(OC)cc1 (stereo not drawn)	10	14

Record cards (already shown):
CN(C)S(=O)(=O)c1ccc(CN)s1 across the screens: NPYLR7 ag: 2; NPYLR7 ag max-min: 0
COCCN(CC(=O)N(Cc1ccc(F)cc1)Cc1ccco1)C(=O)Nc1ccc(OC)cc1OC across the screens: NPYLR7 ag: -14; NPYLR7 ag max-min: -4
Cc1ccc(Nc2nc(N3CCN(CCO)CC3)nc3nccnc23)cc1 across the screens: NPYLR7 ag: 2; NPYLR7 ag max-min: 8

New compounds follow:
SMILES	NPYLR7 ag	NPYLR7 ag max-min
CN(C)c1ccc(NC(=O)C2CCC2)cc1CN(Cc1cccc(F)c1)C(=O)c1ccccc1Cl	14	16
CCSC1CCCC1Nc1ccc(C#N)cn1 (stereo not drawn)	-2	-9
CC1(C(=O)NS(=O)(=O)c2ccccc2)CCN1C(=O)CC(c1ccccc1)c1ccccc1 (stereo not drawn)	5	4
COc1ccc(OC)c(-c2cnc(-c3cccc(CNC(=O)c4cc(F)ccc4F)c3)[nH]2)c1	-2	-3
CC(C)CC(=O)NCCn1nc(-c2cccnc2)ccc1=O	8	-3
O=S(=O)(Cc1ccc(Cl)cc1Cl)Cc1nnnn1C1CC1	5	3
CC1(C)C(=O)Nc2ccc(C(=O)O)cc21	-7	166
CCCNC(=O)CSc1nnc(-c2ccccc2)c2sc(C)nc12	0	-1
CCOC(=O)c1nn(-c2ccc(C)cc2)c(=O)cc1OCc1c(F)cccc1Cl	8	4
Cc1ccccc1N1CCN(C(=O)CCCCSc2nnc(Cc3ccccc3)n2-c2ccccc2)CC1	0	12
CCOC(=O)CNc1nc(Nc2ccccc2)nc(Nc2ccccc2)n1	1	-3
COc1cc(F)c(-c2c(-c3ccccc3)ncn2CCN2CCCC2)cc1OC	8	5

Given with two lines to a compound: entries from further up.
The line under a structure holds: NPYLR7 ag, NPYLR7 ag max-min
> CN(C)c1ccc(NC(=O)C2CCC2)cc1CN(Cc1cccc(F)c1)C(=O)c1ccccc1Cl
    14, 16
> CCSC1CCCC1Nc1ccc(C#N)cn1 (stereo not drawn)
    -2, -9
> CC1(C(=O)NS(=O)(=O)c2ccccc2)CCN1C(=O)CC(c1ccccc1)c1ccccc1 (stereo not drawn)
    5, 4

(cont.)
SMILES	NPYLR7 ag	NPYLR7 ag max-min
COc1ccc(CNC(=O)c2ccc(-c3cccc(Cl)c3)s2)c(OC)c1	17	16
CC1(C)O[C@@H]2C[C@H]3[C@@H]4C[C@H](F)C5=CC(=O)C=C[C@]5(C)[C@H]4[C@@H](O)C[C@]3(C)[C@]2(C(=O)CO)O1	-1&2	-3&1
CC1=NC2=C(C(=O)CC(c3ccccc3)C2)C(c2ccccc2F)C1C(=O)OC1CCCCC1 (stereo not drawn)	-2	-7
COc1ccc(C(=O)N2CCN(c3ccccc3-c3ccccc3)C(=O)C2C)cc1 (stereo not drawn)	-1	-1
CC(C)Nc1nc(NC(C)C)nc(N(C)C#N)n1	0	-1
Cc1ccc(C)n1-c1sccc1C(=O)OCC(=O)N1CCOCC1	0	-1
COc1ccc(/C=C2\C(=O)N(c3nc(-c4ccc(Cl)cc4)cs3)N=C2c2ccccc2)cc1OC	3	14
CC(=O)N[C@@H]1CN(S(=O)(=O)CCOc2ccc(C)cc2)C[C@H]1C(C)C	15	12
CC(C)NC(=O)CC(c1ccc(Cl)cc1)c1c[nH]c2ccccc12 (stereo not drawn)	6	17
CC(CCC(=O)O)[C@H]1CCC2C3C[C@H](O)[C@@H]4C[C@H](O)CC[C@]4(C)C3CC[C@@]21C (stereo partly drawn)	-9	-14
Cc1ccc(S(=O)(=O)Nc2cc(Sc3ncn[nH]3)c(O)c3ccccc23)c(C)c1	-6	-8
Cc1cc(C)c(C#N)c(SCC(=O)C2CC2)n1	-6	-11
Clc1ccccc1COc1ccccc1-c1nnco1	2	0
O=C(CCc1nc2ccccc2c(=O)[nH]1)N1CCCC1c1cccs1 (stereo not drawn)	-5	-4
COCCN(CC(=O)Nc1nc(CC(=O)NC(C)CCc2ccccc2)cs1)C(=O)c1ccc(Cl)cc1Cl (stereo not drawn)	0	2
Cc1csc(CN2CCC(CNC(=O)C3CC3)CC2)n1	2	2
COc1cccc(-c2cccc(NC(=O)C3CCN(CCC(C)C)CC3)c2)c1	6	6
O=C(COC(=O)C12CC3CC(CC(Br)(C3)C1)C2)NC1CCCCCC1	8	7
Cc1cccc2c1NC1(CCN(C(=O)c3cccc(Br)c3)CC1)NC2=O	0	3
Cc1ccc2oc(-c3ccccc3Cl)cc(=O)c2c1	1	2
COc1ccc(CC2CN(CCCC(F)(F)F)CCO2)cc1 (stereo not drawn)	9	0
Cc1cc(C)n(C2CCN(C(=O)c3nn(C)c4c3CCCC4)C2)n1 (stereo not drawn)	2	-3
Cc1noc(C)c1C(=O)NC1CC(=O)N(Cc2cccc3ccccc23)C1 (stereo not drawn)	9	4
CCCN(C(=O)CC(NC(C)=O)c1ccc(OC)cc1)C1CCS(=O)(=O)C1 (stereo not drawn)	6	2
CCCCCC(=O)N1CC(=O)N(Cc2ccc3c(c2)OCO3)CC(O)C1 (stereo not drawn)	-2	8
CCOc1ccc(Nc2nc(NCCCO)nc3c2cnn3-c2ccccc2)cc1	1	1
NS(=O)(=O)c1ccc(F)c(C(=O)N2CCC3(CCCO3)CC2)c1	7	5
COc1ccccc1C(=O)N1CCC2(CC1)NC(=O)c1ccc(Cl)cc1N2	3	12
COc1ccc(C(=O)c2ccc(C)cc2)c(O)c1	-1	1
COc1ccc(OC)c(N2CCN(C(=O)Cc3ccccc3)C(C)C2=O)c1 (stereo not drawn)	1	7
Cn1c(NC(=O)/C=C\c2ccccc2)cc(=O)n(C)c1=O	1	12
CN(Cc1cn[nH]c1-c1cc2ccccc2o1)CC1COc2ccccc2O1 (stereo not drawn)	3&-2	2&-4
CSc1ncc(Cl)c(C(=O)C(C#N)c2nc3ccc(I)cc3c(=O)[nH]2)n1 (stereo not drawn)	1	38
O=C(c1ccccc1)N1CCN(c2cc(Oc3cccc(F)c3)ncn2)CC1	-4	2
CC12C=CC(O1)C1C(=O)N(c3ccc(Cl)c(C(=O)O)c3)C(=O)C12 (stereo not drawn)	11	11
O=C(CCc1cnccn1)N1CCC2(CCCO2)CC1	9	5
FC(F)(F)c1cccc(N=c2oc3ccccc3cc2-c2nc3ccccc3[nH]2)c1	-1	-4
CC(C)CCn1c(N2CCN(CC(N)=O)CC2)nc2c1c(=O)[nH]c(=O)n2C	6	5
CC(Oc1ccc(C#N)cc1)C(=O)N1CCC(NC(=O)c2ccccc2)CC1 (stereo not drawn)	1	-2
Cc1ccc2[nH]c(C)c(CC(=O)n3ncc(C#N)c3N)c2c1	-3	-4
CN(C)C1CCN(Cc2cccc(C(=O)Nc3cccc(CO)c3)c2)C1 (stereo not drawn)	5	2
COCc1nsc(NCCN2CCN(C(C)=O)CC2)n1	6	7
COCCN(CCN(C)C)C(=O)NC1COc2c1ccc(C)c2C (stereo not drawn)	4	12
CCOC(=O)c1ccc2c(c1)nc(SCc1ccccc1CS(=O)(=O)c1ccccc1)n2CCOC	-6	-10
